Assay outcomes from PubChem.
NPYLR7 ag: mosquito NPYLR7 agonism; 0.15% of 270,000 active; HEK293T NPYLR7/Galpha15, GCaMP6s calcium fluorescence; activation, % at 10 µM; in the data active means activation above about 40%;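 further: 0% = vehicle and 100% = reference agonist at the receptor; some compounds past the cut are filed as inactive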
NPYLR7 ag max-min: further read-out of NPYLR7 ag, marked with its call; activation, %; measured here: Max-Min RFU normalised activation; some inactives read as strong as hits;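 span of the calcium signal over five minutes; 0% = vehicle and 100% = native peptide agonist; compound fluorescence can raise it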
An asterisk follows results filed as active. This is a subset. The share of hits here may be higher or lower than overall.

SMILES	NPYLR7 ag	NPYLR7 ag max-min
COc1ccc2nc(-c3ccc(OC)c(NS(=O)(=O)c4cccc(C)c4)c3)cn2n1	-4	-11
O=C(Nc1ccc(C(=O)N2CCOCC2)cc1)C1C2CC3OC(=O)C1C3C2 (configuration not stated)	3	6
COCc1[nH]n2c(=O)c(Cl)c(C)nc2c1-c1ccc(Cl)cc1	-17	-24
FC(F)(F)c1ccc(-c2nc3ccc(Cl)cn3c2NCc2ccccc2)cc1	47*	49*
c1ccc(CCCc2nc(-c3ccccn3)no2)cc1	-6	-8
O=C(Nc1c(-c2ccc(F)cc2)nc2sccn12)c1ccco1	5	0
COc1ccc(Cc2noc(CS(=O)(=O)C3CCCC3)n2)cc1	3	0
CNS(=O)(=O)c1ccc(CN(Cc2ccncc2)Cc2ccc(F)cc2)cc1	-4	3
Cc1cccc(Oc2cnn(-c3ccc(Cl)cc3)c(=O)c2Nc2ccc(C(=O)NCCc3ccccn3)cc2)c1	10	8
COc1ccc(N2CCN(C(=O)C3CCCCC3C(=O)NCCC(c3ccccc3)c3ccccc3)CC2)cc1 (configuration not stated)	-7	-13
COc1ccc(-n2nnc3c(SCc4ccccc4F)ncnc32)cc1	12	12
Cc1ccc(C(=O)N2CCCC(c3[nH]ncc3Cc3ccccc3)C2)c(=O)[nH]1 (configuration not stated)	2	-3
O=C(NC1CCc2ccccc21)C1=COC2=NC(=O)N(Cc3ccccc3C(F)(F)F)CCN12 (configuration not stated)	1	0
CCOC(=O)c1nn(-c2ccccc2F)c(=O)c2c(NC(=O)Cc3cccc(C)c3)scc12	5	3
COc1ccc(OC)c(/C=C/C(=O)NC(c2ccc3c(c2)OCCO3)C(C)C)c1 (configuration not stated)	1	2
COc1ccc2c(c1)C(=O)N(C)C1(CCN(CC=C(C)C)CC1)N2	10	8
CCc1ccc(NS(=O)(=O)c2cccnc2N2CCN(c3ccccn3)CC2)cc1	-8	-11
CCOC(=O)N1CCc2c(sc(NC(=O)C(C)C)c2-c2nc3ccccc3s2)C1	5	0
CC(c1cccc(F)c1)S(=O)(=O)Cc1ccccc1 (configuration not stated)	21	12
CCOc1ccc(N2CC(C)Cn3c2nc2c3c(=O)n(CC(=O)OC)c(=O)n2C)cc1 (configuration not stated)	2	5

One compound at a time, from the list above:
`CC(c1cccc(F)c1)S(=O)(=O)Cc1ccccc1` (configuration not stated) is listed with NPYLR7 ag: 21; NPYLR7 ag max-min: 12
`COc1ccc(Cc2noc(CS(=O)(=O)C3CCCC3)n2)cc1` is listed with NPYLR7 ag: 3; NPYLR7 ag max-min: 0

More structures follow.
SMILES	NPYLR7 ag	NPYLR7 ag max-min
Cc1ccc(C(=O)NC2CCCN(CCCc3ccccc3)C2)cn1 (configuration not stated)	4	4
Cc1[nH]cnc1CN1CCC(Oc2ccc(C(=O)NC3CCCC3)cc2Cl)CC1	1	-2
C=CCN1Cc2cc(F)ccc2NCCC1=O	1	13
CN1CCCCC1CCNC(=O)c1ccc(NCc2ccccn2)nc1 (configuration not stated)	4	-3
CCc1nn2c(N3CCN(CCO)CC3)cc(C)nc2c1-c1ccccc1	4	2
N#CC(C#N)=NC1=C(N2CCCC2)CCC1	7	9
Cc1nc(C)c(Cc2ccc(F)cc2)c(N2CCN(C(=O)c3cccc(Br)c3)CC2)n1	3	12
CN(C)C(=O)N1CCN(c2ccc(-c3noc(C(F)(F)F)n3)cn2)CC1	-2	-3
O=C(NCCn1ncc2c(N3CCN(c4ccccc4)CC3)ncnc21)c1cc2ccccc2o1	-1	-2
CCN(C(=O)CN1CCC[C@H]1CO)C1CC1	18	15
Cc1ncccc1C(=O)N1CCc2c(c(C(=O)O)nn2C)C1	1	7
CCOc1ccc(N2C(=O)CSC2c2cccc(NC(=O)c3ccc(C)c([N+](=O)[O-])c3)c2)cc1 (configuration not stated)	-3	-3
CSc1ccccc1C(=O)C1CCCN(Cc2cnc(-c3cccc(C)c3)nc2)C1 (configuration not stated)	17	3
O=C(Nc1ccc(-c2cscn2)cc1)C1CCCN(C2CCSCC2)C1 (configuration not stated)	4	5
CCN(C(=O)c1nn(-c2ccccc2C)c(=O)cc1OC)c1ccccc1	-6	-6
COc1cccc(C(C2Sc3nc(-c4ccco4)nn3C2=O)N2CCCC(C)C2)c1 (configuration not stated)	2	0
CN(Cc1cn[nH]c1-c1ccc(F)cc1)CC1CC(=O)N(C2CCCC2)C1 (configuration not stated)	2	-10
COc1ccnc(COC(=O)C(C)(C)c2cccs2)c1	1	9
Cc1cn2c3c(=O)n(CCc4ccccc4)c(=O)n(C)c3nc2n1Cc1ccccc1	0	4
CC[C@@]1([C@@H]2O[C@@H]([C@H]3O[C@@](O)(CO)[C@H](C)C[C@@H]3C)C[C@@H]2C)CC[C@H]([C@]2(C)CC[C@]3(C[C@H](O)[C@@H](C)[C@@H]([C@@H](C)[C@@H](OC)[C@H](C)C(=O)O)O3)O2)O1	-1	-6
CSc1cn[nH]c1NC(=O)c1ccc(C)c(F)c1	6	5
CCOCCCNC(N)=S	5	15
CC(C)(CO)C(O)C(=O)NCCC(=O)NCCSSCCNC(=O)CCNC(=O)C(O)C(C)(C)CO (configuration not stated)	-7	-11
CCS(=O)(=O)Oc1cccc(CN(C(=O)c2ccc(F)cc2)C(C)C)c1	4	11
Cc1ccc(-c2cncc(CN(C)Cc3ccccc3)c2)cc1	6	3
Cc1ccc(C(=O)N2CCN(c3ccc(-n4nc(C)c(C)c4C)nn3)CC2)cc1	-5	-9
O=C(NCc1ccccn1)c1ccc(C2CCCCC2)cc1	1	-1
O=[N+]([O-])c1ccc2c(c1)S(=O)(=O)N=C2Nc1ccc(Cl)cc1[N+](=O)[O-]	-15	-19
O=C(Nc1ccc(F)cc1F)c1nnn(Cc2ccc(Cl)cc2)c1-n1cccc1	-8	-9
O=C(N=Nc1c(O)[nH]c2ccc(F)cc12)c1ccncc1	-1	-7
CC(=O)CC1(O)C(=O)N(CCC(C)C)c2ccc(C)cc21 (configuration not stated)	-2	-2
CC1(C)CC(C(C#N)C#N)=CC(=NCCN=C2C=C(C(C#N)C#N)CC(C)(C)C2)C1	-5	-10
N#Cc1c(N)sc2c1CCNC2	0	-6
O=C(COCc1ccccc1)NCc1ccc(-c2ncc(-c3ccc(F)cc3)[nH]2)cc1	2	8
COc1ccc(C(=O)Nc2c(N)nc(SCC(=O)NCC3CCCO3)[nH]c2=O)cc1 (configuration not stated)	-2	1
Fc1ccccc1CN(Cn1c(=S)nc2ncccn21)C1CC1	10	1
COc1ccccc1C1CN(CC(=O)N[C@H]2CCCCNC2=O)Cc2ccccc2O1 (some centres not stated)	-5	-7
CC1(C(=O)NCc2ccccc2Br)CCN1C(=O)C1(c2ccc(Cl)cc2)CC1 (configuration not stated)	-2	2
c1ccc(-c2nc(N3CCCC3)nc3ccccc23)cc1	2	10
COc1ccccc1CCNc1nc2nonc2nc1NC1CC1	-2	-5

Next part (five carried over from the part before).
SMILES	NPYLR7 ag	NPYLR7 ag max-min
Fc1ccccc1CN(Cn1c(=S)nc2ncccn21)C1CC1	10	1
COc1ccccc1C1CN(CC(=O)N[C@H]2CCCCNC2=O)Cc2ccccc2O1 (some centres not stated)	-5	-7
CC1(C(=O)NCc2ccccc2Br)CCN1C(=O)C1(c2ccc(Cl)cc2)CC1 (configuration not stated)	-2	2
c1ccc(-c2nc(N3CCCC3)nc3ccccc23)cc1	2	10
COc1ccccc1CCNc1nc2nonc2nc1NC1CC1	-2	-5
O=C(Nc1cccnc1)c1cc(-c2ccc(Cl)c(Cl)c2)nc2ccccc12	4	9
CCc1nc2ccc(C(=O)Nc3cccc(OCC(=O)N(C)C)c3)cn2c1N(C)CCC(C)C	-6	-12
CCN(CC)c1ccc2cc(C(=O)Nc3ccc(C#N)cc3)c(=O)oc2c1	4	14
O=C(NCCOc1ccc2nnc(-c3ccccc3)n2n1)Nc1cccc(C(F)(F)F)c1	0	-1
O=S(=O)(NCc1ccc(N2CCOCC2)nc1)c1cccc(Br)c1	9	12
COc1ccc(Cl)cc1NC(=O)CCN1C(=O)c2ccccc2C1=O	-4	-8
CCc1c(C)nn(-c2ccc(C(=O)NC(C)(C)CC)cc2)c1C	-3	-11
Cc1ccc(CN(CCc2ccccc2)C(=O)CN(C(=O)NC(C)(C)C)C(C)C)o1	0	5
O=C(O)Cn1c(O)c(C=Nc2ccccc2)sc1=S	-9	-18
COc1ccc(CCNC(=O)Cc2ccccc2OC(C)C)c(O)c1	-2	9
COc1ccc(C(=O)C2CCCN(c3ncnc4[nH]ccc34)C2)c(OC)c1 (configuration not stated)	1	-14
Cc1nc(C)c(Cc2ccccc2F)c(N2CCN(C(=O)COCc3ccccc3)CC2)n1	-6	-1
CCCC(=O)Nc1c(-c2ccccc2)c(=O)c(C)nn1-c1ccc(C)cc1	5	1
CC(C)S(=O)(=O)N1CCC(c2nc(-c3ccccc3Cl)no2)CC1	-1	-1
CCNC(=O)C1CCN(C(=O)c2ccc(-n3cccc3)cc2C)CC1	-21	-24
NC(=O)c1ccccc1N=Cc1cc(Cl)cc(Cl)c1O	11	2
COCCCN(CC(=O)N(CCc1c[nH]c2ccccc12)Cc1ccccc1)C(=O)c1cccc(Br)c1	10	25
O=C(c1ccco1)N1CCCC(OCc2ccc(F)cc2F)C1 (configuration not stated)	-8	-6
Cc1cc(C(=O)NC2(C#N)CC2)ccc1NC(=O)CC(C)C	-2	-1
Cc1ccc(C)c2sc(N(CCCN3CCOCC3)C(=O)c3ccc(C#N)cc3)nc12	-2	-3
CN(CCCC(=O)O)C(=O)c1ccc(OCC(F)(F)F)nc1	-1	20
Cc1ccc(OCCn2c(C)c(/C=N\n3cnnc3)c3ccccc32)cc1C	-1	-5
CCN(Cc1ccccc1F)C(=O)[C@H](N)CC(C)C	6	2
COc1ccc(-c2nc(CN3CCCC3c3ccccn3)c(C)o2)cc1 (configuration not stated)	-4	-4
Cc1ccc(CC(=O)NCc2ccc(C(=O)N3CCCC3)cc2)s1	-37	-36
O=C(CN1CCCC(Nc2ccc3c(c2)OCCO3)C1)Nc1nccs1 (configuration not stated)	-4	8
Cc1ccc2[nH]c(=O)c(CN(C)CCCc3nccn3C)cc2c1	12	9
COC(=NCc1ccc2c(c1)OCO2)NC(=O)c1ccc(Cl)c(Cl)c1	11	14
CC(C)N=c1scc(-c2ccc(F)cc2)n1N=Cc1ccc(O)cc1O	-4	-12
CCC(C(=O)N(Cc1cc(NC(=O)c2cccs2)ccc1N(C)C)CC1CC1)c1ccccc1 (configuration not stated)	5	8
Cc1ccccc1-n1c(C2CC2)n[nH]c1=S	-5	-2
CCc1nc2ccc(C(=O)NCCN3CCOCC3)cn2c1N(CC)Cc1ccc(OC)c(OC)c1	14	8
O=S(=O)(NC(c1ccccc1)c1cccs1)c1ccc(F)c(F)c1 (configuration not stated)	2	1
O=C(CCN1CCc2sccc2C1c1ccccc1)N1CCN(C(=O)COCc2ccccc2)CC1 (configuration not stated)	0	-3
COC(=O)c1cc(N2C(=O)C3C4C=CC(C4=C(C)C)C3C2=O)ccc1Cl (configuration not stated)	-2	-3
COc1ccc(-n2nnc(C(=O)OCc3cccc(Cl)c3)c2C)cc1Cl	0	-9
O=[N+]([O-])c1nn(-c2ccccc2)[n+]([O-])c1N1CCCCCC1	-14	-25
Cc1ccc(C=CC(=O)OCC(=O)c2ccc(Cl)s2)o1	2	8
O=C1NC(=S)C(=Cc2ccc(-c3nc4ccccc4s3)o2)S1	51	40
CCCn1c(CN2CCC(C)CC2)nc2c1c(=O)n(C)c(=O)n2C	5	3
Cc1cccc(NC(=O)CSc2ncnc3c2oc2ccccc23)c1	-8	-9
CC(c1ccccn1)N(C)Cc1cnc(N2CCOCC2)nc1 (configuration not stated)	4	3
Cc1nc(C)c(C(=O)Nc2cc(-c3cccc(F)c3F)[nH]n2)o1	7	5
COc1cn(CC(=O)NC(C)C)c(CN2CCN(C(C)=O)CC2)cc1=O	-3	-4
COCCCNC(=O)COc1c(Cl)cc(C(=O)O)cc1Cl	-1	19
CCN(CC)C(=O)c1cc(NC(=O)C(c2ccccc2)c2ccccc2)ccc1N1CCCC1	-4	11
CC1(C(=O)NS(=O)(=O)c2cccc(F)c2)CCN1C(=O)Cc1ccccc1 (configuration not stated)	4	5
COC(=O)N1CC2=CC(C)(C)COc3ccc(OC)c(c32)C1	2	3
COCc1[nH]nc2c1C1(CCSCC1)C(C#N)C(=N)O2 (configuration not stated)	-1	-3
CN(Cc1c(F)ccc(F)c1Cl)CC1CC(=O)N(C2CCCC2)C1 (configuration not stated)	3	2

Ordered by molar mass (largest number first): some entries from above
SMILES	NPYLR7 ag	NPYLR7 ag max-min
CCN(CC)C(=O)c1cc(NC(=O)C(c2ccccc2)c2ccccc2)ccc1N1CCCC1	-4	11
CN(Cc1c(F)ccc(F)c1Cl)CC1CC(=O)N(C2CCCC2)C1 (configuration not stated)	3	2
Cc1nc(C)c(C(=O)Nc2cc(-c3cccc(F)c3F)[nH]n2)o1	7	5
CC(c1ccccn1)N(C)Cc1cnc(N2CCOCC2)nc1 (configuration not stated)	4	3
COC(=O)N1CC2=CC(C)(C)COc3ccc(OC)c(c32)C1	2	3
COCc1[nH]nc2c1C1(CCSCC1)C(C#N)C(=N)O2 (configuration not stated)	-1	-3

Additional structures
SMILES	NPYLR7 ag	NPYLR7 ag max-min
CC(C)CCn1nc(C(=O)N2CCOCC2)c2c1CCN(Cc1ccc(Oc3ncccn3)cc1)C2	18	7
Cc1[nH]n(-c2nc(-c3ccccc3)cs2)c(=O)c1N=Nc1ccc([N+](=O)[O-])cc1Cl	-10	-13
COc1ccc(C(C)=O)cc1COc1ccc(C#N)cc1	0	-1
Cc1cc(C)cc(-c2nc3ccccn3c2NC(=O)C(C)(C)C)c1	-6	-2
Cc1cc(C)cc(-n2c(C)cn3c4c(=O)[nH]c(=O)n(C)c4nc23)c1	-4	-9
CCN(Cc1ccc(Br)s1)C(=O)CSc1nnc(C2CC2)n1C1CC1	4	11
Cc1ccc(NC(=O)CSc2nc3c([nH]c4ccccc43)c(=O)n2C)c(C)c1	2	11
CCCCCCc1ccc(C(=O)NC(C)c2nnc(SCc3ccc(F)cc3)n2-c2cc(Cl)ccc2C)cc1 (configuration not stated)	14	15
